PKD1 inh: PKD1 (human) kinase inhibition; 0.056% of 200,000 active; AID 797; PKD1 kinase fluorescence polarization assay; Q15139; inhibition, %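 (about 10 µM by stock and volumes)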;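 active = inhibition of 50% or more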;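 also: controls were vehicle for no effect and a reference inhibitor for full effect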
Insulin prom inh: TRM-6 insulin promoter activity inhibition; TRM-6 cells (human fetal islet line), insulin promoter-eGFP reporter, imaging; reporter expression induced with tamoxifen; inhibition, % at 2 µM; 0.9% of 130,000 active;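 active = inhibition above the mean plus 3 SD, with well images judged a real hit on visual review, cut at about 60% in these data, passing the limit was not always enough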
RGS16-Gao HTS: regulators of human RGS16-Galphao interaction | O15492+P09471 | bead-based flow cytometry RGS16-Galphao binding, fluorescence; actives lie on both sides | binding response (% of control), % at 10 µM | 0.38% of 220,000 active | AID 1441;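 active = below 25% or above 175%, edge rows of some plates excepted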;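 also: Galphao activated by GDP with aluminum fluoride before binding; 100% = wells without compound and 0% = beads without RGS; some results beyond the cut were filed as inactive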
Target sequence (O15492 whole entry, looked up): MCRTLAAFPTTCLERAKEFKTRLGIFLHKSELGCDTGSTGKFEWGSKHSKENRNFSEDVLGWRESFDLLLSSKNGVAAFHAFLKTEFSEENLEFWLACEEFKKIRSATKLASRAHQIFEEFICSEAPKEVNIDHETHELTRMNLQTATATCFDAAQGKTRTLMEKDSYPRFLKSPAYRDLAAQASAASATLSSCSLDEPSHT
Target sequence (P09471 whole entry, looked up): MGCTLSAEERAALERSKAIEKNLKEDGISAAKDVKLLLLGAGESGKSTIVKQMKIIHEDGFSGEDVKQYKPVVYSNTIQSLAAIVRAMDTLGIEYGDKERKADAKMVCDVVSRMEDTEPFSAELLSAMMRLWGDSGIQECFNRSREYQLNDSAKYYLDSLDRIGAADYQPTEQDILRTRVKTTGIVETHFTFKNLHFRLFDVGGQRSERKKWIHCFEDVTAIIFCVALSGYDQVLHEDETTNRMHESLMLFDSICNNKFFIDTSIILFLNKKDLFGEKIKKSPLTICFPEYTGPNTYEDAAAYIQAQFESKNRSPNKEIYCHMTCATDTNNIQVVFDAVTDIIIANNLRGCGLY
GALR2 ag: GALR2 (human) receptor agonism; GALR2-expressing cells, agonist activation read-out; activation, %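 (tested at 5 µM)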; 0.48% of 140,000 active; AID 803;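 active = above mean plus 3 SD of all compounds, about 5% in these data, not always enough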;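 also: 0% = vehicle buffer wells and 100% = reference agonist at full effect; tested in CHO reporter cells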
Target sequence (O43603 whole entry, looked up): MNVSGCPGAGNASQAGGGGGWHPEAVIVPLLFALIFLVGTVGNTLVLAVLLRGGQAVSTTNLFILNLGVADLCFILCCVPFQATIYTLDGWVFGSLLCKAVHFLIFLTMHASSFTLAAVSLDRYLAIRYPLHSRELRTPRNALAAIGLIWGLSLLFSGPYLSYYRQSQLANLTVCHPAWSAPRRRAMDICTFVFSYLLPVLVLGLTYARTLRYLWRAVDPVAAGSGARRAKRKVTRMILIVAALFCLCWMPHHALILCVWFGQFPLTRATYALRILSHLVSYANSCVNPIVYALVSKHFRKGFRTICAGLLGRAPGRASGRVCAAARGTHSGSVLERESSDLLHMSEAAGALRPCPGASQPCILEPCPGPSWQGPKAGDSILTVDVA
HSV augment: increases HSV replication in cells. HSV replication augmentation in cells, fold increase. maximum fold increase. 0.005% of 220,000 active. AID 1956;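 active = peak rise of 1.5-fold or more in the series; tested in PC3 cells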;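 also: first round at 10 µM; read as green reporter fluorescence; hits show the peak of a series up to 25 µM; 1 = signal of infected wells without compound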
Insulin prom inh cell count: recorded beside Insulin prom inh, whose call it bears; normalized cell count, %; measured here: cell count, toxicity; reference of the scale not given here;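 cells exposed to compound for 48 h; stained nuclei by imaging scaled within each plate; lower means fewer cells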
HSV augment primary fold: also measured in HSV augment; calls as there; fold increase; compound at 10 µM; measured here: primary screen fold increase 10 uM; tested in PC3 cells;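 GFP signal in the first replicate; 1 = infected wells without compound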
Active calls of the source: *; i = inactive; x = not tested or not shown.

The first 5 records (preview)
Values in the order – PKD1 inh	Insulin prom inh	Insulin prom inh cell count	RGS16-Gao HTS	GALR2 ag	HSV augment	HSV augment primary fold
- CCN1CCN(C(c2cc3cc4c(cc3[nH]c2=O)OCO4)c2nnnn2C(C)(C)CC)CC1 (stereo unspecified)
    -2	-30	26	104	-1.2	i	0.95
- c1ccc(-n2ncc3c2ncn2c(C4CCCCC4)nnc32)cc1
    -5	-93	61	76	-1.9	i	0.93
- O=C(/C=C/c1ccccc1)N1CCN(CC(O)COc2ccccc2)CC1 (stereo unspecified)
    -1	5	151	104	-0.3	i	0.97
- COc1cccc(/C=c2/s/c(=C(\C#N)C(=O)N3CCOCC3)n(-c3ccccc3)c2=O)c1
    -14	-9	65	110	-0.1	i	1
- COc1cc(C(=O)NCC(=O)N/N=C(C)\C=C\c2ccccc2)cc(OC)c1OC
    -2	7	97	91	x	i	0.93

The listing, from the start:
Values in the order – PKD1 inh	Insulin prom inh	Insulin prom inh cell count	RGS16-Gao HTS	GALR2 ag	HSV augment	HSV augment primary fold
- CCN1CCN(C(c2cc3cc4c(cc3[nH]c2=O)OCO4)c2nnnn2C(C)(C)CC)CC1 (stereo unspecified)
    -2	-30	26	104	-1.2	i	0.95
- c1ccc(-n2ncc3c2ncn2c(C4CCCCC4)nnc32)cc1
    -5	-93	61	76	-1.9	i	0.93
- O=C(/C=C/c1ccccc1)N1CCN(CC(O)COc2ccccc2)CC1 (stereo unspecified)
    -1	5	151	104	-0.3	i	0.97
- COc1cccc(/C=c2/s/c(=C(\C#N)C(=O)N3CCOCC3)n(-c3ccccc3)c2=O)c1
    -14	-9	65	110	-0.1	i	1
- COc1cc(C(=O)NCC(=O)N/N=C(C)\C=C\c2ccccc2)cc(OC)c1OC
    -2	7	97	91	x	i	0.93
- COc1cc(C(=O)NC2=NCCS2)cc(OC)c1OC
    -3	-21	108	99	-1.3	i	1
- O=C(C[n+]1cc(-c2ccc(F)cc2)n2c1CCC2)c1cccs1
    x	x	x	105	x	i	1
- Cn1c(NC(=O)c2cccs2)cc(=O)n(C)c1=O
    -10	x	x	117	-3.6	i	0.91
- CCCC(C)C(=O)OCC(=O)NCc1ccc(OC)c(OC)c1 (stereo unspecified)
    1	-27	141	93	x	i	0.92
- O=C(Nc1ccccc1)OCCNC(=O)c1ccccc1
    -3	20	66	104	-3.0	i	1.1
- Cc1ccc2nc(C(C)O)[nH]c2c1 (stereo unspecified)
    -2	31	107	102	-0.3	i	0.97
- COc1ccc(NC(=O)CCCC2CCCCC2)cc1S(=O)(=O)N1CCCCC1
    0	31	102	108	-0.7	i	0.99
- Cc1cnc(NC(=O)COc2ccccc2)s1
    -15	x	x	107	0.6	i	0.95
- CCOC(=O)/C(C#N)=C\C1=C(N2CCCC2)CC(C)(CC)OC1 (stereo unspecified)
    -4	37	91	101	0.2	i	0.85
- Cc1ccc(C(=O)NCCc2nnc(SCC(=O)Nc3nc(-c4ccccc4)cs3)n2C)cc1
    -9	-140	62	84	-2.2	i	1.2
- COc1ccc(CC(C#N)(CO)c2nc3ccccc3[nH]2)cc1 (stereo unspecified)
    -3	x	x	140	0.5	i	0.87
- COC(=O)C1=C(C)NC(=O)NC1c1cc(Cl)ccc1OC (stereo unspecified)
    -4	38	72	104	0.2	i	1.1
- CCOC(=O)c1c(NC(=O)Cc2cccs2)sc(C)c1C
    12	18	72	78	0.5	i	0.77
- CCN1CCN(Cc2ccc(NC(=O)c3ccc(C)c(NC(=O)C[C@@H]4NC(=O)[C@H](Cc5ccccc5)NC4=O)c3)cc2C(F)(F)F)CC1
    x	x	x	103	x	i	0.78
- Cc1cccc(NC(=O)CN(C)S(=O)(=O)c2cccs2)c1
    -8	35	85	100	-1.1	i	0.95
- COc1cccc(OCC(O)CN2CCN(CCO)CC2)c1 (stereo unspecified)
    -9	5	122	103	-1.4	i	0.81
- CO/C([O-])=N/c1c[n+](-c2ccc(C)cc2)no1
    -1	-60	117	99	-2.1	i	0.85
- CCCOc1ccc(Oc2nc(-c3ccncc3)nc3ccccc23)cc1
    x	x	x	117	x	i	1.1
- CN(C)CCN(Cc1cc2cc3c(cc2[nH]c1=O)OCCO3)C(=S)NCC1CCCO1 (stereo unspecified)
    2	x	x	90	x	i	0.92
- COc1ccc(CN2CCNC(=O)C2CC(=O)NCCSc2nccn2C)c(OC)c1 (stereo unspecified)
    -6	x	x	100	x	i	1.1
- Cc1ccc(C(=O)NNC(=O)CCN2C(=O)C3CCCCC3C2=O)cc1 (stereo unspecified)
    -4	x	x	106	-1.5	i	0.97
- COc1cc2cc(CN(Cc3cccs3)C(=S)Nc3cccc(C)c3)c(=O)[nH]c2cc1OC
    4	-354	85	72	-0.5	x	x
- COC(=O)C1=C(C)NC(C)=C(C(=O)OC)C1c1ccc(N(C)C)cc1
    -10	x	x	103	-0.7	i	0.91
- COc1ccc(CCNc2nc3ccccc3n3nnnc23)cc1OC
    11	x	x	102	-0.5	i	1.1
- CCc1cc2cc3c(cc2nc1SCC(=O)Nc1nnc(C)s1)OCCO3
    -1	18	100	103	-2.3	i	0.61

(listing goes on)
Values in the order – PKD1 inh	Insulin prom inh	Insulin prom inh cell count	RGS16-Gao HTS	GALR2 ag	HSV augment	HSV augment primary fold
- CCC(c1nnnn1Cc1ccco1)N(CCc1ccccc1)Cc1cc2ccc(OC)cc2[nH]c1=O (stereo unspecified)
    -3	-133	104	117	-0.4	i	0.88
- COC(=O)CSc1nnc(CSc2nc(C)cc(C)n2)n1Cc1ccco1
    -5	-21	162	110	-0.7	i	1.1
- Cc1ccc(S(=O)(=O)N(C)C(=O)NC(=O)NS(=O)(=O)c2ccccc2)cc1
    -14	50	100	102	x	i	1
- O=c1c2[nH]c3ccccc3c2ncn1CCC1=CCCCC1
    3	x	x	97	0.2	i	0.89
- CCCCN(CC)Cc1ccc(CNC(=S)Nc2c(C)cc(C)cc2C)o1
    3	-29	87	98	x	i	1
- COc1cccc(C2/C(=C(\O)c3ccc4c(c3)OCCO4)C(=O)C(=O)N2CCN(C)C)c1 (stereo unspecified)
    14	-36	119	97	-3.7	i	1.1
- O=C(CCNS(=O)(=O)c1cccc2nsnc12)N1CCc2ccccc21
    -6	-35	61	104	-1.1	i	0.95
- COc1ccc(Sc2ccccc2CN(C)C)cc1OC
    3	x	x	102	-4.8	i	0.82
- CC1CC(=O)N(C)c2ccc([N+](=O)[O-])cc2N1 (stereo unspecified)
    -5	-46	129	103	0.4	i	0.97
- Cn1cc(Br)c(C(=O)NNC(=O)Nc2ccccc2C(F)(F)F)n1
    0	x	x	92	x	i	0.99
- Cc1cc(=O)oc(C)c1C(=O)NC12CC3CC(CC(C3)C1)C2
    -8	x	x	101	0.9	i	0.92
- CCN(Cc1cc(=O)n2ccsc2n1)Cc1nc2cc(OC)c(OC)cc2c(=O)[nH]1
    x	x	x	97	x	i	0.89
- COC(=O)N/N=C/c1cccc(OC(=O)c2ccc3c(c2)OCO3)c1
    x	x	x	99	x	i	2.1
- Cn1c(=O)c2cn3c(c2n(C)c1=O)C(c1ccccc1)CC(c1ccccc1)=N3 (stereo unspecified)
    -3	-46	163	101	0.0	i	0.92
- O=[N+]([O-])c1ccc(N2CCN(C(=S)NC3CCCCC3)CC2)cc1
    -4	-48	81	120	-0.7	i	0.95
- CN(NC1OC(=O)c2ccccc21)c1ccc(C(F)(F)F)cc1[N+](=O)[O-] (stereo unspecified)
    x	x	x	104	x	i	0.99
- Cc1ccc(/C=N/NC(=O)c2cccc([N+](=O)[O-])c2)o1
    -3	20	85	130	-2.0	i	1
- O=C(OCc1cnc(Cl)s1)c1c(F)cccc1F
    -1	0	78	97	x	i	0.96
- Cc1ccc(-c2cc(C(=O)Nc3ccc(S(=O)(=O)Nc4ncccn4)cc3)[nH]n2)c(O)c1C
    x	x	x	104	x	i	0.9
- COc1ccc(NC(=O)NCc2ccncc2)cc1
    3	-22	191	111	-0.1	i	1
- CN1CCN(CCCNC(=O)c2cc3c(=O)oc4ccccc4c3s2)CC1
    -1	x	x	97	-0.1	i	0.88
- CCOC(=O)c1[nH]c(C)c(C(=O)N2CCN(c3ccc(OC)cc3)CC2)c1C
    8	10	107	99	x	i	1
- CCOC(=O)N1CCN(S(=O)(=O)c2cc(Br)cc3c2N(C(=O)CC)CC3)CC1
    -12	x	x	100	-0.2	i	0.95
- CC(=O)c1c(C)[nH]c(C(=O)COC(=O)CN(C)S(=O)(=O)c2ccc(Cl)cc2)c1C
    2	51	98	108	-2.5	i	1
- COc1ccc(CCNC(=O)c2cc(C(C)C)on2)cc1OC
    -1	-43	103	101	0.1	i	0.84
- COc1ccc(C2C(C(=O)NC(C)C)c3ccccc3C(=O)N2C)cc1OC (stereo unspecified)
    -8	57	111	86	-2.3	x	x
- O=C(O)c1cc([N+](=O)[O-])ccc1NCc1ccccc1Cl
    8	x	x	98	x	i	1
- CN(c1ccccc1)S(=O)(=O)c1cccc(NS(=O)(=O)c2ccc(/C=C/C(=O)O)cc2)c1
    4	x	x	99	x	i	0.91
- O=C1CCc2cc(S(=O)(=O)N3CCN(c4cccc(Cl)c4)CC3)ccc2N1
    3	29	66	107	-2.8	i	0.74
- Cc1cccc(OCC(=O)N/N=C\c2cc3c(cc2[N+](=O)[O-])OCO3)c1C
    -1	13	137	101	-2.9	i	0.91

(listing goes on)
Values in the order – PKD1 inh	Insulin prom inh	Insulin prom inh cell count	RGS16-Gao HTS	GALR2 ag	HSV augment	HSV augment primary fold
- COc1ccc(-n2cnc3scc(-c4ccc(OC)c(OC)c4)c3c2=O)cc1
    5	x	x	103	x	i	0.74
- COc1ccc(CNC(=O)Cn2cncn2)cc1OC
    -3	89*	119*	64	x	i	0.98
- Cn1cnnc1SCC(=O)N1CCC(Cc2ccccc2)CC1
    -4	42	94	99	-2.4	i	1.1
- O=S(=O)(Nc1cccc2cn[nH]c12)c1ccc(F)cc1
    -1	-6	157	102	-1.1	i	0.95
- Cc1ccccc1-c1nc(CS(=O)(=O)CC(=O)NCCCN2CCCC2)c(C)o1
    -17	x	x	107	-0.5	i	0.67
- Cn1c(=O)c2c(nc(SCC(=O)O)n2Cc2cccc(C(F)(F)F)c2)n(C)c1=O
    -10	-33	30	110	-0.5	i	0.91
- COc1cccc(NC(=O)Cn2c(=O)n(-c3ccccc3)c(=O)c3sccc32)c1
    -1	x	x	102	x	i	0.82
- CC(C)NC(=O)C(C)n1cccc1C(=O)c1ccccc1 (stereo unspecified)
    -13	-22	126	108	-2.6	i	0.92
- CCCCCN(C(=O)NC(=O)Nc1ccc(C)cc1C)S(C)(=O)=O
    3	x	x	100	x	i	0.9
- Nc1nnnn1CC(=O)N/N=C/c1ccc(-c2cccc(Cl)c2)o1
    -5	x	x	103	x	i	1
- Cc1ccc2c(c1)C1CN(C)CCC1N2C(=O)COc1ccc(N(C)C(=O)c2ccccc2)cc1 (stereo unspecified)
    -2	-27	86	113	x	i	0.87
- CS(=O)(=O)c1ccc(Cl)c(NC(=O)c2cccc(Br)c2)c1
    -13	19	87	123	-1.8	i	0.99
- COC(=O)Cc1ccc(NC(=O)c2ccc(C(C)(C)C)cc2)cc1
    -8	-20	70	103	-1.5	i	0.85
- O=C(O)c1ccccc1NCCO
    6	-18	80	99	x	i	1
- O=S(=O)(c1ccc(Nc2ccc(-c3ccc4c(c3)OCCO4)nn2)cc1)N1CCCC1
    -6	3	79	93	-1.3	i	0.72
- COC(=O)c1ccc(CN2CCN(CCCc3ccccc3)C(CCO)C2)cc1 (stereo unspecified)
    0	x	x	92	x	i	1
- O=C(NC1CCCC1)c1cnn2c(C(F)(F)F)cc(-c3ccc4c(c3)OCO4)nc12
    -15	16	118	95	-2.0	i	0.73
- CCOc1ccc(N2C(=O)/C(=C/c3ccccc3)N=C2SC)cc1
    -8	53	109	101	x	i	0.73
- CCOC(=O)Cc1nc2ccccc2[nH]1
    -2	-11	111	100	5.4*	i	1.1
- CN(C)c1nc2n(c(=O)n1)C(C#N)CS2 (stereo unspecified)
    3	0	81	105	-1.5	i	1.2
- Cc1ccc2[nH]c(=O)c(C(c3nnnn3C(C)(C)C)N(Cc3ccco3)CC3CCCO3)cc2c1 (stereo unspecified)
    -2	23	69	94	0.4	i	0.84
- COc1cc(C(=O)N2CCN=C2c2ccccc2)cc(OC)c1OC
    -15	x	x	100	-1.2	i	0.79
- CC(Sc1nnc(-c2ccc(C(C)(C)C)cc2)n1C)C(N)=O (stereo unspecified)
    -5	-16	199	95	-1.0	i	0.93
- COc1ccccc1NC(=O)C(=O)N/N=C/c1cccs1
    0	-11	120	104	-0.7	i	0.93
- CC(C)CCNC(=O)CSc1nnc(-c2ccc(S(=O)(=O)N3CCCC3)cc2)n1C
    -7	0	59	89	-1.7	i	0.87
- Cc1cccc(CSc2nnc(CCNC(=O)OC(C)(C)C)o2)c1
    x	x	x	100	x	i	1
